# Screening data: PubChem BioAssay, ICCB-Longwood Screening Facility, Harvard Medical School
# GIV Gai3 FP: inhibitors of GIV peptide binding to Galpha-i3, primary screen, biochemical, fluorescence polarization, FITC-GIV GBA peptide, rat Galphai3 | percent of control (FP), % (concentration not given with the values) | hit rate 0.42% among 210,000 | 90 min; hits give low values; scaled: aluminum fluoride 0%, vehicle 100%;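 active = replicate mean at 85% of control or lower, very high polarization wells dropped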;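 note: wells of about 15 µL received 100 nL stock; the first replicate is given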
# Target sequence (P08753 whole entry, looked up): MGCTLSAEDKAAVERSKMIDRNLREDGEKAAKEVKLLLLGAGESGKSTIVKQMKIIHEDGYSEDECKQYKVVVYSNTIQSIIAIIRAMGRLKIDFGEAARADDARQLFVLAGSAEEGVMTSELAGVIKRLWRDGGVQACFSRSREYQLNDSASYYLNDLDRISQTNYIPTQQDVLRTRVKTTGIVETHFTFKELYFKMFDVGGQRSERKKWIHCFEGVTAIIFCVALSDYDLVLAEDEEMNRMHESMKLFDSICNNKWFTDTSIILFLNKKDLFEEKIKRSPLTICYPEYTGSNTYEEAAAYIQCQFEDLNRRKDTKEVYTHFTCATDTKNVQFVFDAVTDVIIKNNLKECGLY
# Sa growth inh: S. aureus growth inhibition at 42 and 30 °C, primary screen, LtaS inhibitor project, RN4220, two temperatures | hit rate 0.53% among 170,000 | OD600, 20 h, 42 °C; hits give low values | relative growth, % (concentration not given with the values) | AID 720641, 2013;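 active = growth at 42 °C up to 50% and 20 or more points under that at 30 °C, or under 10% at both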;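 note: 300 nL library stock went into each well; scaled to the means of positive and negative controls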
# HCMV UL50-53 inh: inhibitors of HCMV UL50-UL53 interaction, biochemical, HTRF. inhibition, % (concentration not given with the values). AID 1918969, 2023. HCMV UL50-UL53 nuclear egress complex (human cytomegalovirus). normalized percent inhibition. hit rate 0.15% among 190,000;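 active = both replicates at 50% or more, plus weaker picks with an unusually low signal ratio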;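 note: stock transfer was 100 nL into about 20 µL; 0% = negative control wells and 100% = wells with untagged competitor protein; inactives centre near -12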
# Sa growth inh second temp: recorded beside Sa growth inh, whose call it bears; relative growth, %; measured here: growth at 30 °C;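 optical density after 20 h as mean of two plates; 100% = untreated growth and lower means inhibition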
# The depositor's hits bear a star; nt = no result given; & = joins results of further samples.
SMILES	GIV Gai3 FP	Sa growth inh	Sa growth inh second temp	HCMV UL50-53 inh
COC(=O)c1ccc(N=NN2CCCCC2)cc1	98.6	82.9	118.3	-11.5
CC1CN=C(NS(=O)(=O)c2ccccc2)N1 (stereo unspecified)	96.8	96.5	86.0	-16.7
Cc1cc(C(=O)OCCN2CCN(C3=NS(=O)(=O)c4ccccc43)CC2)c2ccccc2n1	107.3	96.6	77.8	nt
Cc1cc2n(n1)CCCN2Cc1ccc(C(=O)N2CCc3ccccc32)cc1	102.1	110.5	81.3	-5.6
CN1C(=O)/C(=C(/C#N)C(=O)NCCc2ccccc2)c2ccccc21	nt	51.4	25.3	-19.0
CC(Nc1ncnc2sc3c(c12)CCC3)c1ccc(S(N)(=O)=O)cc1 (stereo unspecified)	nt	89.7	91.2	-9.0
Cc1nn(C(C)C(=O)Nc2ccc(Cl)cc2)c(=O)c2nn(-c3ccccc3)c(C)c12 (stereo unspecified)	96.6	nt	nt	-5.3
COc1ccc(Br)c2c1-c1nc(NC(=O)c3ccc(F)cc3)sc1C2	100.9	86.6	84.0	1.1
CCCc1nc2nc(C)c(NS(=O)(=O)c3ccc(CC(C)C)cc3)c(=O)n2[nH]1	102.8	122.2	95.2	-8.4
O=C(CCCn1c(SCC(=O)c2ccccc2)nc2ccccc2c1=O)NCc1ccccc1	100.2	115.9	84.4	4.8
O=C(/C=C/c1cccs1)N1CCN(c2ccccc2)CC1	103.4	102.5	92.2	-22.5
CCCSCCCNC(=O)C1CCN(c2nc3ccccc3nc2C(F)(F)F)CC1	105.7&102.6	96.0	99.3	-6.0
C=CCn1c(C)cc(C(=O)COC(=O)c2c(C)nn(Cc3ccccc3)c2C)c1C	nt	123.8	99.4	-21.5
O=C(Nc1ccc(Cl)cc1)OCCn1nnnc1C(c1ccccc1)N1CCOCC1 (stereo unspecified)	108.0	69.8	58.9	-27.2
COc1ccc(C(=O)COc2ccc3c(C)c(Cl)c(=O)oc3c2)cc1	96.2	87.0	73.7	nt
CNC(=O)c1cc2n(n1)CCCN(Cc1ccc(F)cc1)C2=O	102.7	77.0	91.2	nt
Cc1ccc(-n2ncc(C(=O)NCCN3CCCC3)c2C2CCN(C(=O)OC(C)(C)C)CC2)cc1C	111.3	123.0	85.1	nt
CCNC(=O)C1CCCN(c2nn3cc(-c4ccc(C)cc4)nc3s2)C1 (stereo unspecified)	96.3	84.6	89.7	nt
CCCN1CCC(N2CCCC(C(=O)N3CCCCCC3)C2)CC1 (stereo unspecified)	100.6	87.7	83.7	-21.8
O=C(O)CCC(=O)Nc1ccccc1	96.9	83.4	84.3	-3.2
CN(c1ccc(Br)cc1)S(=O)(=O)c1ccc2c(c1)CCN2C(=O)CCC(=O)O	100.1	79.4	79.0	-18.6
Cc1cc(C)c(NC(=O)CCn2c(=O)c3cccn3c3ccccc32)c(C)c1	104.3	102.7	93.4	-15.3
CCOC(=O)C(C)Sc1ncnc2nc[nH]c12 (stereo unspecified)	104.2	89.7	77.7	nt
CCC(=O)NC(=S)Nc1ccc2oc(-c3ccccc3Cl)nc2c1	111.5	114.3	70.0	-8.7

# Part of the list above, as labelled records.
CC(Nc1ncnc2sc3c(c12)CCC3)c1ccc(S(N)(=O)=O)cc1 (stereo unspecified)
  GIV Gai3 FP: nt | Sa growth inh: 89.7 | Sa growth inh second temp: 91.2 | HCMV UL50-53 inh: -9.0

CNC(=O)c1cc2n(n1)CCCN(Cc1ccc(F)cc1)C2=O
  GIV Gai3 FP: 102.7 | Sa growth inh: 77.0 | Sa growth inh second temp: 91.2 | HCMV UL50-53 inh: nt

# Further records follow:
SMILES	GIV Gai3 FP	Sa growth inh	Sa growth inh second temp	HCMV UL50-53 inh
Cc1ccc2c(CSc3nnc(C4CC4)n3C3CC3)cc(=O)oc2c1	nt	105.6	79.4	-10.5
CCOc1ccc(CCNc2ncnc3c2nc2n3CCCCC2)cc1OCC	94.0	95.8	82.5	nt
CC(C)Nc1nc(NC(C)C)nc(OCCOC(=O)c2ccccc2)n1	99.5	nt	nt	-4.7
COc1ccc(C)cc1NC(=O)c1cc(S(=O)(=O)NC2CCCCCC2)ccc1F	100.9	73.9	90.0	nt
O=C(/C=C/c1nc2ccccc2o1)OCc1cccc(Cl)c1	nt	87.9	87.1	-35.5
O=C(CSc1nnc(CNc2ccccc2)o1)N1CCc2ccccc21	101.7	119.4	77.5	6.7
N#Cc1cc(C(=O)Nc2ccccc2)c(N)[nH]c1=S	nt	79.9	69.0	-37.4
COc1ccc(CNC(=O)Cn2nc(C)n3cccc3c2=O)cc1	99.9	111.5	95.8	-9.0
O=C(C1CCC(Cn2c(=O)c3sccc3n(Cc3ccc(F)cc3)c2=O)CC1)N1CCOCC1 (stereo unspecified)	98.2	91.3	83.7	nt
COc1cc(OC)c(NC(=O)N2CCC(CN3CCCC3)CC2)cc1Cl	103.8	102.2	98.0	nt
Cc1ccc(NC(=O)c2cccc(S(C)(=O)=O)c2)cc1	nt	99.4	96.3	12.3
CCOC(=O)Cc1csc(N)n1	97.8	95.8	104.8	9.0
C=C1C(C(=O)Nc2ccc(F)cc2)C1C(=O)Nc1ccc(F)cc1 (stereo unspecified)	nt	97.0	100.9	22.8
O=C1CC(c2ccco2)CC2=C1C(c1ccccc1)n1nc(C(F)(F)F)nc1N2 (stereo unspecified)	101.2	95.2	91.5	-33.3
NC(=O)CSc1nnc(-c2ccc(Cl)cc2Cl)n1C1CCCCC1	nt	107.5	95.4	-7.8
COc1ccccc1-c1nc(SCC(=O)c2ccc(O)c(O)c2)n[nH]1	98.9	129.2	52.7	-37.8
CC1CCN(C(=O)CN2C(=O)C(C)(C)Oc3ccc(C(=O)NC(C)C)cc32)CC1	99.8	107.8	72.1	4.7
Nc1ccn(C2O[C@H](CO)[C@@H](O)C2(F)F)c(=O)n1 (stereo partly specified)	97.8	nt	nt	-32.5
Cc1ccc(OCCOc2ccc(Br)cc2C=C2C(=O)NC(=S)NC2=O)cc1	94.8	nt	nt	-25.0
Cc1onc(-c2c(Cl)cccc2Cl)c1NC(=O)OCCOc1cc(C(F)(F)F)ccn1	100.3	92.4	73.2	-40.5
COc1cc(NS(=O)(=O)c2ccc(N)cc2)ncn1	nt	51.2	31.5	-38.6&-24.5
COc1ccc(NC(=O)CC2(CC(=O)O)CCCC2)cc1	100.7	114.6	90.9	nt
O=C(CSc1nc2ccccc2c(=O)n1Cc1ccccc1)NC1CCS(=O)(=O)C1 (stereo unspecified)	nt	95.6	89.0	-8.4
Cc1nc2c(ccc3nc(NC(=O)c4cccc(Oc5ccccc5)c4)sc32)s1	105.7	98.7	97.2	nt
CCOC(=O)Cn1c(=O)n(C2CCCCC2)c2nc(-c3ccc(OCC)cc3)nc(C(N)=O)c21	106.6	92.1	97.4	nt
Cc1cc(C(=O)N2CCN(c3ccccc3F)CC2)c2cccc(-c3ccc(F)cc3)c2n1	105.9	nt	nt	-21.1
CN(CC(=O)Nc1cccc(C(F)(F)F)c1)S(=O)(=O)c1cccs1	104.6	101.8	88.5	-4.0
CSC(=Nc1ccc(Cl)cc1)NC#N	nt	103.4	88.5	-0.1
COc1ccc(-c2noc(C3CCCN(C(=O)Nc4ccccc4)C3)n2)cc1 (stereo unspecified)	103.9	115.8	71.7	-2.4
Nc1ccc(N=Nc2ccccc2)c(N)n1	nt	98.3	90.9	-103.3&-103.9&-115.7&-130.5
N/C(=N\OCc1noc(-c2ccsc2)n1)c1ccc(C(F)(F)F)cc1	105.3	107.7	92.1	7.7
CCS(=O)(=O)c1nc(S(=O)(=O)c2ccc(Cl)cc2)c(N2CCN(CCO)CC2)s1	101.5	98.1	75.9	-8.8
O=c1[nH]c2ccc(Cl)cc2c(-c2ccccc2)c1N1CCN(Cc2ccc3c(c2)OCO3)CC1	98.7	31.6	34.5	-5.4
O=C(c1cc(-c2ccncc2)n[nH]1)N1CCN(c2ccc(F)cc2)CC1	97.8	nt	nt	10.2
Cn1c(=O)c(=O)n(C)c2cc(NC(=O)c3cccc(F)c3)c(Cl)cc21	101.7	94.3	88.2	-11.6
CCOc1ccc(C2=C(/C=c3/sc4nc5ccccc5n4c3=O)C(c3ccc(F)cc3)c3ccccc3O2)cc1 (stereo unspecified)	102.5	nt	nt	1.8
O=C(CC1N=C2c3ccccc3N=C(SCc3cccc(Cl)c3)N2C1=O)NCCc1ccccc1 (stereo unspecified)	111.3	72.2	78.0	nt
Cc1ccc(C)c(CN2C(=O)c3ccccc3S(=O)c3ccc(C(=O)N4CCC(C)CC4)cc32)c1 (stereo unspecified)	100.8	106.5	89.5	-8.1
Cc1nn(CC(=O)N2CCN(C)CC2)c2ccccc12	104.1	nt	nt	-12.2
CCC(C)N=CC1=C(O)CC(C)(C)CC1=O (stereo unspecified)	98.7	90.9	86.9	-14.9
CCOC(=O)c1cccc(NC(=O)c2cc3cc4ccc(C)cc4nc3s2)c1	104.2	97.1	91.2	-16.5
Cn1c(=O)c2c(nc(SCCNS(=O)(=O)c3ccccc3)n2C)n(C)c1=O	99.0	85.4	86.4	-3.6
N#CC1=C(SCC(=O)OCc2ccccc2)NC(=O)CC1c1cccc([N+](=O)[O-])c1 (stereo unspecified)	103.3	nt	nt	-20.9
CN(C)S(=O)(=O)c1ccc(C(=O)Nc2nnc(C34CC5CC(CC(C5)C3)C4)s2)cc1	105.7	nt	nt	-4.7
COCCCNC(=O)c1sc2ncnc(N3CCN(c4ccc(OC)cc4)CC3)c2c1C	110.7	nt	nt	1.0
COc1ccc(-c2cc(C(=O)OCC(=O)NCc3ccco3)c3c(C)nn(-c4ccccc4)c3n2)cc1	nt	95.0	78.3	-7.8
Cc1ccc(-c2cc(C(=O)NC(C)c3ccccc3)c3ccccc3n2)cc1C (stereo unspecified)	103.7	101.5	85.8	nt
COc1ccc(N(C)C(=O)c2ccc3snnc3c2)cc1	104.4	95.5	82.6	-1.8

# Retrieved by compound from the entries so far, 3 records:
SMILES	GIV Gai3 FP	Sa growth inh	Sa growth inh second temp	HCMV UL50-53 inh
COc1ccccc1-c1nc(SCC(=O)c2ccc(O)c(O)c2)n[nH]1	98.9	129.2	52.7	-37.8
O=C1CC(c2ccco2)CC2=C1C(c1ccccc1)n1nc(C(F)(F)F)nc1N2 (stereo unspecified)	101.2	95.2	91.5	-33.3
CCOc1ccc(CCNc2ncnc3c2nc2n3CCCCC2)cc1OCC	94.0	95.8	82.5	nt

# Other results
SMILES	GIV Gai3 FP	Sa growth inh	Sa growth inh second temp	HCMV UL50-53 inh
Cc1cc(C)n(-c2ccc(C(=O)OCC(=O)NCC3CCCO3)cc2)n1 (stereo unspecified)	nt	90.0	90.4	-19.7
Clc1ccc(-c2cc(-c3nc(-c4ccc5c(c4)OCO5)no3)[nH]n2)cc1	104.7	nt	nt	0.1
O=C1N=c2ccccc2=C1c1c(O)n(-c2cccc(F)c2)[nH]c1=O	104.8	110.0	96.4	-4.5
COc1cc2c(cc1NC(=O)CSc1nnc(Cc3cccs3)n1Cc1ccco1)oc1ccccc12	108.1	128.1	106.9	14.0
Cc1ccc2c(CSc3cccc[n+]3[O-])cc(=O)oc2c1	nt	94.1	94.0	-29.2
O=C(O)CSc1c2c(nc3cc(C(=O)NCc4ccc(F)cc4)ccc13)CCCC2	103.9	100.6	94.0	nt
O=C(CN1C(=O)S/C(=C\c2ccc(F)cc2)C1=O)Nc1ccc(S(=O)(=O)NCc2ccco2)cc1	nt	94.0	87.5	-22.8
CCc1ccc(-c2nc3ccccc3c(=O)o2)cc1	103.3	91.8	66.3	nt
O=C(CN1C(=O)CSc2ccc(C(=O)N3CCCC3)cc21)NCc1cccnc1	103.5	nt	nt	-27.4
CCc1ccccc1NC(=O)c1ccc(Cn2nc(N3CCN(c4ccccc4)CC3)ccc2=O)o1	107.0	95.6	78.2	nt
COc1cc(-c2nnc(CSc3nnc(C)s3)o2)cc(OC)c1OC	nt	94.2	83.0	-40.2
CSc1ccc(-c2nc3ccc(C)cn3c2Nc2ccccc2C)cc1	103.9	93.1	96.8	6.0
COc1ccc(NC(=O)c2nnc(COCC(=O)NCc3ccccn3)s2)cc1	103.9	nt	nt	-45.5
O=C(CSC(=S)N1CCCCC1)c1c(F)cccc1F	108.0	86.8	94.1	-2.8
Cn1ncc(Br)c1N1C(=O)C=CC1=O	106.3	72.4	76.3	-21.1
CCCCNC(=O)c1cc2ccc3ccc(C)[nH]c3c2n1	106.9	nt	nt	-5.9
CCCCOC(=O)c1cc(-c2ccc(/C=C3\NC(=S)NC3=O)o2)ccc1Cl	108.6	nt	nt	-18.8
Cc1cnc(NC(=O)Cc2ccc(OCc3c(C)noc3C)cc2)s1	nt	109.9	87.8	-24.0
N#CCc1c(C#N)c(N)nc(SC(=N)N)c1C#N	nt	90.0	83.4	-42.7
c1ccc(OC2OCCOC2Oc2ccccc2)cc1 (stereo unspecified)	nt	121.8	92.7	-4.5
COc1cc(/C=C2/SC(=S)N(CCC(=O)Nc3nnc(C)s3)C2=O)cc(OC)c1OC	109.9	nt	nt	-12.7
CNc1c(NC(=O)C(C)(C)C)c(=O)oc2ccccc12	97.6	87.3	89.0	-29.0
CCc1ccc(OCCCC(=O)Oc2ccc3c(c2)oc(=O)c2ccccc23)cc1	95.5	92.3	73.7	nt
